StopGo RLuc: Primary qHTS Assay for Foot and Mouth Disease Virus Antivirals against NCGC Sytravon and CBC Compound Libraries: Renilla Luciferase Signal. HEK cells with a luciferase reporter of 2A StopGo recoding. Potency, µM (titrated, usually from 57.5 µM), inactives show at the top dose signal change, negative = less light. hit rate 0.32% among 120,000; active means well fitted falling curve with a large enough effect; inconclusive means small, poorly fitted or top-dose-only effect; inactive means no such curve, though single readings can be large or run the other way; also: nearly all actives have a fitted effect of over 55% in size; overnight with compound
2A firefly: Primary qHTS Assay for Foot and Mouth Disease Virus Antivirals against NCGC Sytravon and CBC Compound Libraries: Firefly Luciferase Signal. HEK cells with a luciferase reporter of 2A StopGo recoding. Potency, µM (series often up to 57.5 µM), for inactives: at the highest dose signal change, negative = less light. hit rate 0.23% among 120,000; active = well fitted falling curve with a large enough effect; inconclusive = small, poorly fitted or top-dose-only effect; inactive = no such curve, though single readings can be large or run the other way; also: nearly all actives have a fitted effect of over 60% in size; overnight with compound
* = called active by the depositor; ? = inconclusive; [ ] = dose if it differs, or a comment. % is scaled to controls: 0 for no effect and ±100 for the full control effect; potency is read from the fitted curve at half-maximal effect. Not all compounds are listed. The share of hits here may be higher or lower than overall.

The first 6 entries (preview)
SMILES | StopGo RLuc | 2A firefly
C=CCNC(=O)C(C)N1CCN(c2oc(-c3ccco3)nc2C#N)CC1 (configuration not stated) | -3% | -4%
Cc1cc(C)cc(NC(=O)CCS(=O)(=O)c2ccc3nc(C)sc3c2)c1 | 6% | -19%
CC1CCCCC1NC(=O)c1cc2c(Cl)nc3ccccc3c2s1 (configuration not stated) | 23% | 10%
CCCCCN1CCN(c2nc3c(c(=O)[nH]c(=O)n3C)n2Cc2ccc(Br)cc2)CC1 | -18% | -22%
CCC(CC)C(=O)Nc1nnc2n1CCS2 | -10% | -14%
Cc1cc2oc(=O)cc(CSc3nc(N)cc(N)n3)c2cc1C | 210%[activator] | 20%

The list itself (from the top)
SMILES | StopGo RLuc | 2A firefly
C=CCNC(=O)C(C)N1CCN(c2oc(-c3ccco3)nc2C#N)CC1 (configuration not stated) | -3% | -4%
Cc1cc(C)cc(NC(=O)CCS(=O)(=O)c2ccc3nc(C)sc3c2)c1 | 6% | -19%
CC1CCCCC1NC(=O)c1cc2c(Cl)nc3ccccc3c2s1 (configuration not stated) | 23% | 10%
CCCCCN1CCN(c2nc3c(c(=O)[nH]c(=O)n3C)n2Cc2ccc(Br)cc2)CC1 | -18% | -22%
CCC(CC)C(=O)Nc1nnc2n1CCS2 | -10% | -14%
Cc1cc2oc(=O)cc(CSc3nc(N)cc(N)n3)c2cc1C | 210%[activator] | 20%
CC(C)c1ccc(OCc2cc(=O)n3c4c(sc3n2)CCCC4)cc1 | -11% | ?
COc1ccc2[nH]c(C(=O)NCc3ccco3)cc2c1 | -25% | 26%
CCc1ccc(N2CC(C(=O)OCC(=O)Nc3ccc(C#N)c(Cl)c3)CC2=O)cc1 (configuration not stated) | -12% | -1%
CN(Cc1nnc2n1CCCCC2)C(=O)c1n[nH]c(=O)c2ccccc12 | -11% | 1%
Cc1ccc(C)c(NC(=O)Cn2c(=O)n(Cc3ccccc3)c(=O)c3oc4ccccc4c32)c1 | -6% | -9%
O=C(CCC1CCCCC1)NCCCNC(=O)CCC1CCCCC1 | 4% | 5%
O=C(CN1CCCN(Cc2cccc(Cl)c2)S1(=O)=O)Nc1ccc2c(c1)OCCO2 | 8% | -16%
COc1ccc(NC(=O)CC2Sc3ccccc3NC2=O)cc1 (configuration not stated) | 29% | 34%[activator]
CSc1ncc2c(n1)-c1ccccc1N(Cc1ccc(Cl)cc1)S2(=O)=O | -10% | -1%
CCc1ccc(NC(=O)Cn2nc3c4ccccc4n(Cc4ccccc4)cc-3c2=O)cc1 | -7% | -7%
CCCCn1c(CNC(=O)C23CC4CC(CC(C4)C2)C3)nnc1SCC(=O)Nc1ccc(C)cc1 | 0% | -35%
Cc1ccc(OCc2nc(C#N)c(N3CCOCC3)o2)cc1 | -2% | 35%[activator]
CCOc1ncccc1C(=O)Nc1cc(S(=O)(=O)N2CCCCC2)ccc1C | -3% | -13%
Cc1nc(-c2ccc(Cl)cc2)sc1CCNC(=O)c1ccco1 | 26% | 189%[activator]
Cc1ccc(-n2nc3cc(C)c(NC(=O)c4ccc(-c5ccccc5)o4)cc3n2)cc1 | 11% | 0%
CCc1ccc(-n2nc(CO)c(C(=O)NCc3ccccc3Cl)n2)cc1 | -3% | -17%
COc1cccc(/C=C2\Oc3cc(OC(=O)C(C)(C)C)ccc3C2=O)c1 | -10% | 2%
O=c1n(Cc2cccc(F)c2)c2ccccc2c2nc(-c3ccccc3)nn12 | -7% | -10%
Cn1c(OCc2cccnc2)nc2c1c(=O)n(Cc1ccc(Cl)cc1)c(=O)n2C | -15% | 4%
Brc1ccccc1/C=N/Nc1nncc2ccccc12 | 29% | 155%[activator]
Cc1cccc(NC(=O)CCc2c(C)nc3c(c(C)nn3C(C)(C)C)c2C)c1C | -8% | -10%
Cc1ccccc1CC(=O)NC1CCCC1 | 4% | -9%
CC(C)Cn1c2c(c(=O)[nH]c1=O)C(c1ccc(F)cc1)C1=C(COC1=O)N2 (configuration not stated) | -7% | 1%
O=C(COCc1nc2ccccc2c(=O)[nH]1)Nc1nc(-c2ccc3c(c2)CCCC3)cs1 | -1% | 83%[activator]
COc1ccccc1C(=O)Nc1onc2c1CCCC2 | 0% | -8%
Cc1[nH]c(C)c(C=O)c1C=O | -26% | 12%
CC(=O)NC(Nc1ccc2ccccc2c1)C(Cl)(Cl)Cl (configuration not stated) | ? | -25%
CN(C)CCN(Cc1cccs1)c1ccccn1 | -13% | 0%[11.5 µM]
CCOC(=O)C1=C(CN2CCN(C(=O)OC(C)(C)C)CC2)NC(=O)NC1c1ccccc1OCC (configuration not stated) | -4% | -2%
CCC(C)(C)C1CCC(NC(=O)Cn2nc(C(N)=O)c3ccccc3c2=O)CC1 (configuration not stated) | -4% | -1%
CN(CCCNC(=O)c1cc2cc(F)ccc2[nH]1)Cc1ccccc1 | -4% | 3%
COc1cc(NC(=O)CSc2nc3cc(C)[nH]c3c(=O)n2C)cc(OC)c1OC | 24% | 7%
Nc1ccc(S(=O)(=O)Nc2cnc3ccccc3n2)cc1 | -6% | 9%[11.5 µM]
CC(=O)c1ccc(NC(=O)C(Cc2ccccc2)NS(=O)(=O)c2ccc3c(c2)CCC(=O)N3)cc1 (configuration not stated) | -11% | -17%

As entered above:
Result for CCC(CC)C(=O)Nc1nnc2n1CCS2 under StopGo RLuc: -10%
Result for CCOc1ncccc1C(=O)Nc1cc(S(=O)(=O)N2CCCCC2)ccc1C under StopGo RLuc: -3%

The list continues:
SMILES | StopGo RLuc | 2A firefly
O=[N+]([O-])c1ccc(Oc2ccc3ccncc3c2)cc1C(F)(F)F | -4% | 11%
COc1cccc(C(=O)Nc2ccc(NS(=O)(=O)c3ccc4c(c3)OCCCO4)cc2)c1 | 0% | 10%
Cc1ccc(CC(=O)N2CCC(NS(=O)(=O)c3ccc(C)cc3)CC2)cc1 | 111%[activator] | -8%
CC(C)Cc1ccc(C(C)C(=O)NC(Cc2ccccc2)C(N)=O)cc1 (configuration not stated) | 12%[1.06 µM] | ?
O=C(Nc1ccc(Cl)c(C(F)(F)F)c1)c1ccccc1I | -8% | 63%[activator]
CCC12CN(CC#N)CC(C)(CN(CC#N)C1)C2=O | 8% | 6%
COc1ccc2nc(NS(=O)(=O)c3ccc(Cl)cc3)c(Nc3ccc(C)cc3)nc2c1 | 11% | 7%
CCOC(=O)C1(C)C=C(Nc2ccc(F)cc2)C(=O)N1c1ccc(F)cc1 (configuration not stated) | -19% | 50%[activator]
CNC(=O)c1ccc(NC(=O)c2cc(=O)[nH]c3ccccc23)cc1 | -1% | 14%
O=C(Nc1ccc(C(F)(F)F)cc1)C1CCN(/C=C/C(=O)C(F)(F)F)CC1 | 6% | 1%
Cc1c(Cl)cccc1NC(=O)CN1C(=O)CN=C(c2ccccc2)c2cc(Cl)ccc21 | 30% | 7%
CC(C)(C)c1ccc(Cn2nc(C(=O)O)c3ccccc3c2=O)cc1 | 14% | 18%
Cn1ncc2c(NC3CCCCC3)ncnc21 | 1% | 10%
COC(=O)C1=CNC=C(C(=O)OC)C1c1ccccc1F | 48%[activator] | 0%
Cc1ccc(S(=O)(=O)N2CCC(n3c(C)nc4cccnc43)CC2)cc1 | 7% | 2%
Cc1ccc(C)c(N2CCN(c3nc4c(S(=O)(=O)c5ccccc5)nnn4c4ccc(Cl)cc34)CC2)c1 | 0% | -5%
Cc1ccc(S(=O)(=O)c2nnn3c2nc(N2CCN(c4cccc(C)c4C)CC2)c2ccccc23)cc1C | -2% | -10%
CC(C)NS(=O)(=O)c1ccc(OCC(=O)N2CCN(c3cccc(Cl)c3)CC2)cc1 | ? | ?
CCC1Oc2cc(S(=O)(=O)N(C)CC(=O)N3CCCc4ccccc43)c(C)cc2NC1=O (configuration not stated) | 28% | -6%
Cc1ccc(C)c(CN2C(=O)c3ccccc3S(=O)c3ccc(C(=O)N(C)Cc4ccccc4)cc32)c1 (configuration not stated) | 90%[activator] | ?

Single records (already shown):
CC(C)NS(=O)(=O)c1ccc(OCC(=O)N2CCN(c3cccc(Cl)c3)CC2)cc1 is entered as StopGo RLuc: ?; 2A firefly: ?
Cc1ccc(S(=O)(=O)N2CCC(n3c(C)nc4cccnc43)CC2)cc1 is entered as StopGo RLuc: 7%; 2A firefly: 2%
Cn1ncc2c(NC3CCCCC3)ncnc21 is entered as StopGo RLuc: 1%; 2A firefly: 10%

(cont.)
SMILES | StopGo RLuc | 2A firefly
COc1ccc(-c2ccc(NS(=O)(=O)c3ccc(NC(C)=O)cc3)cc2)nn1 | 65%[activator] | 40%[activator]
CCc1ccc(OCC(O)Cn2c(SCCC(C)C)nc3c2c(=O)[nH]c(=O)n3C)cc1 (configuration not stated) | -8% | -3%
Cc1ccc(-c2nn(C)c(=O)c3ccccc23)cc1S(=O)(=O)NCCCN(C)C | ? | ?
Cc1ccc(N2CCN(C(=O)c3cc4cc5ccc(C)cc5nc4s3)CC2C)cc1 (configuration not stated) | -7% | -22%
CC(NC(=O)c1cc(F)cc(F)c1)C1CC2CCC1C2 (configuration not stated) | -28% | -26%
CCOc1cccc(/C=C(/C#N)C(=O)c2ccccc2OC)c1 | 4% | 3%
Cc1cc2nn(CC(=O)N3CCCC3)c(=O)n2c(N2CCc3ccccc3C2)n1 | -10% | -1%
Cc1nnc(SCC(=O)c2ccccc2F)n1Cc1ccccc1 | 31%[activator] | 0%
CCC(=O)Oc1ccc2c(-c3cc4ccccc4oc3=O)cc(=O)oc2c1 | 15% | 15%
CN1CCN(C(=O)C2CCN(c3nn4cc(-c5ccc(F)cc5)nc4s3)CC2)CC1 | -2% | 61%[activator]
CSCC[C@H](Nc1ncnc2sc3c(c12)CCCC3)C(=O)O | 0% | 7%
COc1ccc(C2=C(C)C(=NC(C)C34CC5CC(CC(C5)C3)C4)NS2(=O)=O)cc1 (configuration not stated) | 5% | 1%
CCCCCCc1cc2cc(-c3cn4c(n3)sc3cc(OC)ccc34)c(=O)oc2cc1O | 7% | 43%[activator]
CC(=O)Nc1ccc(Nc2nc3ccc(Cl)cc3n3cnnc23)cc1 | 5% | -7%
CC(C)=CC(=O)Nc1cc(Cl)cc(Cl)c1 | 7% | 81%[activator]
CCCNC(=O)NC(=O)COC(=O)c1cc(-c2ccco2)nc2ccccc12 | 24% | 38%[activator]
CCn1c(CC23CC4CC(CC(C4)C2)C3)nnc1SCc1ccc(F)cc1 | 107%[activator] | 8%
COc1ccc(OC)c(CCNC(=O)c2cc3cccc4c3n2CC(C)S4)c1 (configuration not stated) | -12% | -20%
CCCCNC(=O)Cn1cc(C#N)c2ccccc21 | 0% | 5%
Cc1ccc(-n2ncc(C(=O)NCCN3CCCC3)c2C2CCN(C(=O)OC(C)(C)C)CC2)cc1 | -5% | -22%
Cc1ccc(NCC(O)Cn2c3ccccc3n3c(=O)cc(C)c(C#N)c23)cc1 (configuration not stated) | -8% | 12%
CC(C#N)CN(C)C(=O)CNC(=O)NCc1ccco1 (configuration not stated) | -3% | -14%
CCCNC(=O)CN(C)Cc1ncc(-c2ccccc2)o1 | 0% | 146%[activator]
CC(C)Cc1nc2cccnc2n1C1CCN(S(=O)(=O)c2ccc(Cl)s2)CC1 | -22% | ?
CCn1cc(C(=O)NCc2ccc(C)cc2)c(=O)c2cc(S(=O)(=O)N3CCCCCC3)ccc21 | -14% | -7%
CCOC(=O)Cc1ccc(NC(=O)Nc2cccc(OCc3cc(=O)n4cc(C)ccc4n3)c2)cc1 | 13% | -20%

Assay outcomes from PubChem.
